Compound activity (PubChem)
MLL AF4-AF9 inh: inhibitors of AF4 peptide binding to AF9, primary screen, biochemical, AlphaScreen, biotin-AF4 peptide, FLAG-AF9, single point | Protein AF-9 (Homo sapiens), P42568 | inhibition, % at 10 µM | 0.47% of 350,000 active;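 active means every replicate reaching a set inhibition limit, whatever the replicate mean, cut at about 25% in these data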;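 further: 0% = plate neutral control median and 100% = total signal loss; the record names both 10 and 1 µM as test concentration; the first replicate is given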
Target sequence (P42568 whole entry, looked up): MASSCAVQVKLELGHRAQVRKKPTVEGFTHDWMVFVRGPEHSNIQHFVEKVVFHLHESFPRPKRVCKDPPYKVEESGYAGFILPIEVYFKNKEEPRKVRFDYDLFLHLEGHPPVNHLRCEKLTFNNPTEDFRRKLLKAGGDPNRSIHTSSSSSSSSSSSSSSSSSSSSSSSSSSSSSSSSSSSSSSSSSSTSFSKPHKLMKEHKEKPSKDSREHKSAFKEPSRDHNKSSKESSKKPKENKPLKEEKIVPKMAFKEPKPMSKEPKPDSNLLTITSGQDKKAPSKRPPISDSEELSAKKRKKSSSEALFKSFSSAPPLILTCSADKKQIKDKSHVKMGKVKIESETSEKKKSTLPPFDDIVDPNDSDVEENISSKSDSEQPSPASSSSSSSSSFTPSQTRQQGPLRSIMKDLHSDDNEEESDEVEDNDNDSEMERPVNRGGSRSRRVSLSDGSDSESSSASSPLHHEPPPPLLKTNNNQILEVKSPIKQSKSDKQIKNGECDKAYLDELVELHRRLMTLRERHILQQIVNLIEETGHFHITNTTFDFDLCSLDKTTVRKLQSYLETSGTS
rRNA inh HTS: reduced GFP signal of wild-type E. coli, primary screen, bacterial rRNA inhibitor project, GFP/RFP fluorescence, OD600, single point; E. coli WT GFP vs humanized-ribosome RFP mutants, 24 h; stronger effect = lower value; DMSO median 0, no signal -100; GFP signal change (wild-type ribosome), % (no concentration beside the values); 1.6% of 350,000 active;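 active means significant combined selectivity score with lowered wild-type GFP, culture density cut under 30%, mutant RFP and density less affected; inactive means any of these conditions unmet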; further: one replicate is shown; some compounds called inactive have numbers as strong as hits
FGF22 binding: binders of human FGF22 protein, primary screen, FGF22 synaptogenesis inhibitor project, biophysical, thermal shift, single point | 1.5% of 340,000 active | recombinant FGF22 thermal shift, SYPRO orange fluorescence; percent of sucrose octasulfate shift, DMSO zero | Fibroblast growth factor 22 (Homo sapiens), Q9HCT0 | calls only at 9.99 µM | AID 651658, 2012;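 active means melting point raised past a set limit in the mean and every replicate; three in four hits are not shown here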
Target sequence (Q9HCT0 whole entry, looked up): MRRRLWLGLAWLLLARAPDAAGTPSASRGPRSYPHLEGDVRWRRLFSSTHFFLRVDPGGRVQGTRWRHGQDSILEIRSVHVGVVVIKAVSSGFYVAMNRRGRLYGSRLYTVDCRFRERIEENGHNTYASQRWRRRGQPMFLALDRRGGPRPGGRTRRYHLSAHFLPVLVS
rRNA inh HTS OD600: further read-out of rRNA inh HTS, marked with its call; OD600 change, %; measured here: OD600 growth;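 optical density of the mix in the first replicate; 0 = DMSO median and -100 = no signal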
rRNA inh HTS RFP: also measured in rRNA inh HTS; calls as there; RFP signal change, %; measured here: RFP humanized mutant strains;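 first replicate; 0 = DMSO median and -100 = no signal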
An asterisk follows results filed as active; i = inactive; / = no result given; & = joins results of further samples. An excerpt; the hit share may differ from the screen's.

Compound,MLL AF4-AF9 inh,rRNA inh HTS,rRNA inh HTS OD600,rRNA inh HTS RFP,FGF22 binding
COc1ccc(CN(C)C[C@@H]2Oc3ccc(NS(=O)(=O)c4cn(C)cn4)cc3C(=O)N([C@H](C)CO)C[C@H]2C)cc1,-1.1,4.2,10.0,-1.8,i
C[C@H](CO)N1C[C@H](C)[C@@H](CN(C)C(=O)Nc2ccc(C(F)(F)F)cc2)OCCCC[C@H](C)Oc2ccc(NS(=O)(=O)c3cccs3)cc2C1=O,-1.1,-0.9,7.2,-1.2,i
CN1[C@@H]2c3ccc(-c4ccncc4)c(=O)n3C[C@H]1[C@H](CO)[C@H]2C(=O)NCC1CCCCC1,-3.1,-0.2,1.7,-3.1,i
CC(C)CCN1C(=O)c2ccccc2C1c1nnnn1Cc1ccccc1 (stereo not given),-0.5,-18.4,-15.3,2.1,i
CCCCCCCCCC(=O)N[C@@H]1c2cc(OC)c(OC)cc2C[C@H]1OCc1ccccc1,-15.4,21.1,25.1,2.4,i
CO[C@@H]1CN(C)C(=O)c2ccc(NC(=O)NC(C)C)cc2OC[C@@H](C)N(Cc2ccc(-c3ccccn3)cc2)C[C@H]1C,4.8,-1.6,-1.2,0.4,i
CCS(=O)(=O)Nc1ccc2c(c1)C(=O)N(C)C[C@H](OC)[C@@H](C)CN(C(C)=O)[C@H](C)CO2,0.3,4.7,4.8,-0.2,i
CN(C)CC(=O)N[C@@H]1C=C[C@H](CC(=O)NCc2ccccc2F)O[C@@H]1CO,-2.7,1.6,-0.1,-0.6,i
O=C(C[C@@H]1CC[C@@H](NC(=O)Nc2ccc3c(c2)OCO3)[C@@H](CO)O1)NCc1ccc(F)cc1,-0.9,3.1,10.7,-1.7,i
O=C(N[C@H]1CC[C@@H](CC(=O)N2CCC(Cc3ccccc3)CC2)O[C@@H]1CO)c1cnccn1,0.1,0.2,9.4,0.8,i
CN(C)C(=O)C[C@@H]1CC[C@H]2[C@H](COc3ccc(NC(=O)Nc4cccc(Cl)c4)cc3C(=O)N2C)O1,3.2,-1.8,-10.1,5.3,i
CN1CCN(C(=O)C[C@@H]2CC[C@H]3[C@@H](COC[C@H](O)CN3CC3CC3)O2)CC1,-1.4,0.8,13.1,-2.2,i
O=C(C[C@H]1C=C[C@H](NC(=O)c2ccccc2)[C@@H](CO)O1)NCCc1ccncc1,-1.3,1.4,9.6,-0.4,i
Cc1ccc(C(=O)NCc2ccc3c(c2)OCO3)c(Cl)c1,-0.6,1.4,2.1,-6.6,i
COc1ccc(-c2nc3cc(C)c(Br)c(C)n3c2Cc2ccsc2)cc1OC,0.0,8.9,11.8,2.6,i
CO[C@@H]1CN(C)C(=O)c2ccc(NC(=O)c3cc(C)on3)cc2OC[C@H](C)N(C(=O)C2CC2)C[C@H]1C,-1.7,-1.7,2.5,1.1,i
C[C@@H]1CN([C@@H](C)CO)C(=O)c2cc(NS(=O)(=O)c3cccs3)ccc2O[C@H]1CN(C)C,-3.5,1.7,8.7,0.3,i
COc1ccc(NC(=O)N(C)C[C@H]2OCCCC[C@H](C)Oc3ccc(NC(=O)NC(C)C)cc3C(=O)N([C@@H](C)CO)C[C@@H]2C)cc1,1.1,-2.7,3.0,3.1,i
C[C@@H]1CCCCO[C@@H](CN(C)S(C)(=O)=O)[C@H](C)CN([C@@H](C)CO)C(=O)c2cc(NS(=O)(=O)c3ccccc3)ccc2O1,0.2,-4.6,-2.4,-1.0,i
CSCCNC(=O)C1(C)CCN1C(=O)c1cc(C)n(C)n1 (stereo not given),-0.8,8.2,13.9,-0.3,i

Looked up one by one from above (2):
Compound,MLL AF4-AF9 inh,rRNA inh HTS,rRNA inh HTS OD600,rRNA inh HTS RFP,FGF22 binding
COc1ccc(-c2nc3cc(C)c(Br)c(C)n3c2Cc2ccsc2)cc1OC,0.0,8.9,11.8,2.6,i
COc1ccc(CN(C)C[C@@H]2Oc3ccc(NS(=O)(=O)c4cn(C)cn4)cc3C(=O)N([C@H](C)CO)C[C@H]2C)cc1,-1.1,4.2,10.0,-1.8,i

New compounds follow
Compound,MLL AF4-AF9 inh,rRNA inh HTS,rRNA inh HTS OD600,rRNA inh HTS RFP,FGF22 binding
C[C@H](CO)N1C[C@H](C)[C@H](CN(C)C(=O)Cc2ccccn2)Oc2cc(-c3ccc(C(=O)N(C)C)cc3)ccc2S1(=O)=O,-6.1,1.5,-0.6,-4.8,i
CN(C)C(=O)c1ccc(-c2cccc(-c3nc(C(=O)NC4CCCC4)cc4c3[C@H](CCO)N([S@@](=O)C(C)(C)C)C4)c2)cc1,0.9,-4.7,6.3,21.6,i
C[C@@H]1CN([C@H](C)CO)C(=O)c2cccc(NC(=O)Nc3ccc4c(c3)OCO4)c2O[C@H]1CN(C)S(C)(=O)=O,-0.9,-0.3,-0.2,0.2,i
C[C@@H]1CN([C@H](C)CO)C(=O)c2cc(C#Cc3ccc(F)cc3)cnc2O[C@@H]1CN(C)C(=O)Nc1ccc(F)cc1,1.2,0.8,-5.0,-1.2,i
O=C(C[C@@H]1CC[C@H](NC(=O)c2cccc(F)c2)[C@H](CO)O1)NCCN1CCCC1,0.2,0.2,3.0,-1.2,i
CCC(=O)N1CCc2cc(Br)c(S(=O)(=O)NCCN3CCCCC3CC)cc21 (stereo not given),-0.3,7.5,21.2,4.8,i
CC(C)C#Cc1ccc2c(c1)O[C@H](CN(C)C(=O)c1ccncc1)[C@H](C)CN([C@H](C)CO)S2(=O)=O,2.3,1.6,-4.7,-2.2,i
CCNC(=O)C[C@H]1CC[C@@H]2[C@@H](COc3ccc(NC(=O)c4cscn4)cc3C(=O)N2C)O1,-32.5,1.5,6.3,-0.7,i
Cn1cnc(CCNC(=O)C[C@@H]2CC[C@H]3[C@@H](COC[C@H](O)CN3C(=O)Nc3ccc(Cl)cc3)O2)c1,2.2,-9.0,-1.4,0.0,i
NCC[C@H]1CC[C@H](NC(=O)C2CCC2)[C@@H](CO)O1,-0.2,2.5,-4.5,-0.1,i
COc1ccccc1NC(=O)N[C@@H]1CC[C@H](CCNC(=O)c2ccc3c(c2)OCO3)O[C@H]1CO,0.0,2.9,5.0,2.3,i
CCC(=O)N1CC2(CCN(C(C)=O)CC2)c2c([nH]c3cc(OC)ccc23)[C@@H]1CO,-0.7,0.8,5.7,-0.9,i
CC(C)C#Cc1cnc2c(c1)C(=O)N([C@@H](C)CO)C[C@@H](C)[C@@H](CN(C)Cc1ccccc1F)O2,-0.7,3.9,7.4,-1.7,i
C[C@]12Cc3ccccc3C1CC1=N[C@@H](c3ccc(C(F)(F)F)cc3)O[C@@]13C[C@@H]2C(=O)N3C1CCN(Cc2ccccc2)CC1 (stereo not given in full),2.9,-8.2,-25.9,5.8,/
C[C@H](CO)N1C[C@H](C)[C@@H](CN(C)C(=O)C2CCC2)Oc2cc(C#Cc3ccncc3)ccc2S1(=O)=O,1.4,-7.8,-20.9,4.8,i
CCCNC(=O)[C@H]1[C@H](CO)[C@H]2Cn3c(ccc(-c4ccc(F)cc4)c3=O)[C@@H]1N2CC,-1.0,-0.8,-17.1,-1.5,i
C[C@@H]1CN([C@@H](C)CO)S(=O)(=O)c2ccc(C3=CCCCC3)cc2O[C@@H]1CN(C)C(=O)Cc1ccccc1,0.3,-12.8,-5.7,3.4,i
CCC(=O)N1CC[C@H]2[C@H](CO)Nc3ccc(C#Cc4cccnc4)cc3[C@H]21,-11.3,-1.1,8.4,-10.4,i
Cc1ccc(C(O)c2ncc(-c3cccc(C(F)(F)F)c3)[nH]2)cc1F (stereo not given),5.0,-61.1,-82.3,-18.3,i
COCCCN1C(=O)C(CC(=O)NCCCCc2ccccc2)CC(C(=O)N2CCOCC2)=C1C (stereo not given),1.2,13.8,4.5,2.6,i
O=C(C[C@@H]1C=C[C@H](NC(=O)Nc2ccc(F)cc2)[C@H](CO)O1)NCc1ccccn1,0.6,-0.7,1.6,-0.2,i
O=C(C[C@H]1C=C[C@@H](NC(=O)C2CC2)[C@@H](CO)O1)NC1CCC1,-3.8,1.2,0.3,-1.3,i
COc1cccc(C#Cc2ccc([C@H]3[C@H](CO)N4C(=O)CN(S(=O)(=O)c5ccccc5C)C[C@@H]34)cc2)c1,-2.9,2.3,8.1,2.8,i
CCCNC(=O)C[C@H]1CC[C@@H]2[C@H](COc3ccc(NC(=O)Cc4ccccc4)cc3C(=O)N2C)O1,-0.3,4.8,3.8,4.5,i
Cc1ccccc1S(=O)(=O)N1[C@H](C#N)[C@@H](c2ccccc2)[C@H]1CO,-0.6,-0.1,11.3,0.7,i
CO[C@@H]1CN(C)C(=O)c2ccc(NC(=O)c3nc4ccccc4s3)cc2OC[C@@H](C)N(Cc2cncnc2)C[C@H]1C,8.5,-9.8,-8.9,9.5,i
C[C@@H]1CN([C@@H](C)CO)C(=O)Cc2cc(NC(=O)c3ccncc3)ccc2O[C@H]1CN(C)Cc1ccc2c(c1)OCO2,5.4,-2.0,1.6,0.8,i
CC1(C)OC(=O)C2=C(CC(c3ccccc3)OC2CCc2ccccc2)O1 (stereo not given),-3.7,0.2,3.3,0.1,i
COCC(=O)N1CC2(C1)CN(S(C)(=O)=O)[C@H](CO)c1[nH]c3cc(OC)ccc3c12,1.1,5.7,8.0,-2.5,i
CO[C@@H]1CN(C)C(=O)c2cc(NC(=O)Nc3c(C)noc3C)ccc2OC[C@@H](C)N(C(=O)Nc2cccc(Cl)c2)C[C@H]1C,-0.1,-7.8,-3.5,-0.5,i
C[C@@H]1CN([C@H](C)CO)C(=O)c2cccc(NC(=O)NC3CCCCC3)c2O[C@@H]1CN(C)Cc1ccc(C(=O)Nc2ccccc2N)cc1,-3.5,-1.1,-3.7,-2.5,i
C[C@@H]1CN([C@@H](C)CO)C(=O)CCCn2nncc2CO[C@@H]1CN(C)Cc1ccc(-c2ccccc2)cc1,7.7,-5.1,-9.2,10.8,i
CCc1ccc(N2CC(C(=O)Nc3ccccc3N3CCCC3)CC2=O)cc1 (stereo not given),3.0,3.1,-28.1,-5.6,i
C[C@@H]1CN([C@@H](C)CO)C(=O)c2ccccc2-c2ccccc2CO[C@H]1CN(C)C(=O)[C@@H](Cc1ccccc1)N(C)C,-2.5,-0.2,4.5,-1.7,i
C[C@H]1CN([C@@H](C)CO)C(=O)c2cc(Br)cnc2O[C@@H]1CN(C)C(=O)C1CCC1,-0.7&-3.8,2.6,3.8,-2.6,i
COc1ccc(NC(=O)N(C)C[C@H]2OCCCC[C@H](C)Oc3ccc(NC(=O)C4CCCCC4)cc3C(=O)N([C@@H](C)CO)C[C@@H]2C)cc1,0.2,-3.6,-10.8,2.1,i
C[C@H]1CN([C@@H](C)CO)S(=O)(=O)c2ccc(C3=CCCCC3)cc2O[C@@H]1CN(C)C(=O)C1CC1,0.4,-4.2,-14.0,6.6,i
C[C@@H]1CCCCO[C@H](CN(C)Cc2ccc(Cl)c(Cl)c2)[C@H](C)CN([C@@H](C)CO)C(=O)c2cc(NC(=O)C3CCCCC3)ccc2O1,0.9,0.3,-1.5,2.1,i
C[C@@H]1CCCCO[C@H](CN(C)C(=O)c2ccccc2)[C@H](C)CN([C@@H](C)CO)C(=O)c2cc(NS(=O)(=O)c3ccc(F)cc3)ccc2O1,1.1,0.4,-7.1,1.6,i
CC(C)NC(=O)Nc1cccc2c1O[C@H](CN(C)Cc1ccc(Oc3ccccc3)cc1)[C@@H](C)CN([C@@H](C)CO)C2=O,6.2,2.6,-3.5,0.2,i

In the list so far, three contain two or more sulfur atoms:
Compound,MLL AF4-AF9 inh,rRNA inh HTS,rRNA inh HTS OD600,rRNA inh HTS RFP,FGF22 binding
C[C@H](CO)N1C[C@H](C)[C@@H](CN(C)C(=O)Nc2ccc(C(F)(F)F)cc2)OCCCC[C@H](C)Oc2ccc(NS(=O)(=O)c3cccs3)cc2C1=O,-1.1,-0.9,7.2,-1.2,i
C[C@@H]1CN([C@@H](C)CO)C(=O)c2cc(NS(=O)(=O)c3cccs3)ccc2O[C@H]1CN(C)C,-3.5,1.7,8.7,0.3,i
C[C@@H]1CCCCO[C@@H](CN(C)S(C)(=O)=O)[C@H](C)CN([C@@H](C)CO)C(=O)c2cc(NS(=O)(=O)c3ccccc3)ccc2O1,0.2,-4.6,-2.4,-1.0,i

(list continues)
Compound,MLL AF4-AF9 inh,rRNA inh HTS,rRNA inh HTS OD600,rRNA inh HTS RFP,FGF22 binding
C[C@H]1CN([C@@H](C)CO)S(=O)(=O)c2ccc(-c3ccc(C#N)cc3)cc2O[C@H]1CN(C)C,0.7,3.8,13.3,-0.9,i
CN1CCN(C(=O)c2ccc(-c3cnc4cccnn34)cc2)CC1,-3.1,-1.3,6.2,-2.5,i
CCCN1C[C@H](C)[C@H](OC)CN(C)C(=O)c2ccc(NS(C)(=O)=O)cc2OC[C@@H]1C,-2.1,1.7,0.5,-0.7,i
C[C@H]1[C@H](c2ccccc2)Oc2cc(Br)ccc2S(=O)(=O)N1Cc1cccc(F)c1,0.3,12.0,11.0,-4.9,i
